Screening data deposited in PubChem BioAssay by several laboratories.
Rce1 inhib: yeast Ras-converting enzyme inhibition; calls only; yeast membranes, quenched prenylated peptide cleavage fluorescence; AID 2563; 290,000 tested, 0.27% active; Q03530;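 active = fall in fluorescence gain of 50% or more versus controls, with final raw signal at or below 3038400; inconclusive = same 50% fall but final raw signal above 3038400; inactive = fall in fluorescence gain under 50%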;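 note: plate controls were neutral control wells for no effect and wells lacking membranes for full effect; tested at 10 µM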
Target sequence (Q03530 whole entry, looked up): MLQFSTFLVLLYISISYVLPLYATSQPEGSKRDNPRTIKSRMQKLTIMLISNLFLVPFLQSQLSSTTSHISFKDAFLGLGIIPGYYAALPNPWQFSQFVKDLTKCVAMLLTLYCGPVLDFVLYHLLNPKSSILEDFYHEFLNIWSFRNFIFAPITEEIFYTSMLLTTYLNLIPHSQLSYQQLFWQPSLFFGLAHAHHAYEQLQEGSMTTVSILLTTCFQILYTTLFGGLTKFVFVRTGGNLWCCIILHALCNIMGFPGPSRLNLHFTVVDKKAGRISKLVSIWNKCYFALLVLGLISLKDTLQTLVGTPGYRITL
PABP FP inh: blocks human PABP binding to poly(A) RNA; P11940; fluorescence polarization; inhibition, % at 35 µM; 290,000 tested, 1% active; AID 2014;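 active = 50% or more with normal probe brightness, or confirmed in later tests; inconclusive = above 50% with abnormal brightness, or retests that disagree; inactive = below 50% or failed in later tests; about a fifth of its hits are not listed in these tables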;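 note: calls also rest on retests at 20 µM and on dose response follow-up; controls were probe without protein and protein plus probe with vehicle; some compounds called inactive have numbers as strong as hits; many hits fall short of the cut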
Target sequence (P11940 whole entry, looked up): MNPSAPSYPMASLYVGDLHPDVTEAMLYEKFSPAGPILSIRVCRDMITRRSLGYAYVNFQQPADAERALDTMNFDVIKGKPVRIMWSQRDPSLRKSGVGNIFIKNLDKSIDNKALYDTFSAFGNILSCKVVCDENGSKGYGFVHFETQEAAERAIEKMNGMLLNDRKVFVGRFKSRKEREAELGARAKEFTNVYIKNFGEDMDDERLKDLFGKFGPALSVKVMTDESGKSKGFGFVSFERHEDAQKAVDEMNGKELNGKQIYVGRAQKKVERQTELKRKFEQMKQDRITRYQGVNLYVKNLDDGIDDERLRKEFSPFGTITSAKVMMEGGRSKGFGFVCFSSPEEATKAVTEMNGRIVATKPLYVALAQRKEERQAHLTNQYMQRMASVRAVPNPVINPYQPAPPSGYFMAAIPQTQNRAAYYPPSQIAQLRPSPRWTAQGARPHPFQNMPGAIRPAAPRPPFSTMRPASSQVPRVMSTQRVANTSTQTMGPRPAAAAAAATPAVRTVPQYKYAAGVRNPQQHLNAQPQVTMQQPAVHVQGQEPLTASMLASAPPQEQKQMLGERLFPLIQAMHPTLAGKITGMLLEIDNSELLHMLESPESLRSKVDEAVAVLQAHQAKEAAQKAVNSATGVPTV
MT1-MMP act inh: inhibitors of human MT1-MMP activation; GFP/RFP ratio change, % at 20 µM; HT1080 RFP-PRO-GFP cells, GFP/RFP ratio fluorescence, overnight; percent of plate control window, DMSO zero; 360,000 tested, 0.061% active; AID 651647; P50281;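 active = GFP/RFP ratio change of at least 30% with cell ATP level not reduced by more than half and red fluorescence within 50% of control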; note: strong numbers were not always called active
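system = RFP-PRO-GFP reporter HT1080 cells | dosing = 20 µM single dose, 1% DMSO | timing = overnight cell settling, then overnight compound exposure, 37 °C, 5% CO2 | read-out basis = GFP/RFP fluorescence ratio | controls = DMSO and RFP-L50D-GFP cell wells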
UUG fidelity: alters start codon recognition fidelity in yeast | S. cerevisiae UUG-firefly luciferase reporter, luminescence/redox ratio | activity score, % at 18.7 µM | 350,000 tested, 0.13% active | AID 602363;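 active = replicate mean at a twofold rise or more, about +100% in these data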;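 note: firefly luciferase made from a UUG start codon reports start codon fidelity; reporter light over untreated wells divided by growth signal over untreated wells; some hits fall short of that in this replicate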
eIF4H FP inh: inhibitors of RNA binding by human eIF4H. Q15056. eIF4H fluorescence polarization binding assay. inhibition, % at 35 µM. 290,000 tested, 0.94% active;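 active = 50% or more with normal probe brightness, or confirmed in later tests; inconclusive = above 50% with abnormal brightness, or retests that disagree; inactive = below 50% or failed in later tests; about a fifth of its hits are not listed in these tables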;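 note: calls also rest on retests at 20 µM and on dose response follow-up; 0% = protein and probe with vehicle and 100% = probe without protein; strong numbers were not always called active; many hits fall short of the cut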
CSC inhib: cancer stem cell inhibition; cancer stem cell-like cells viability, luminescence; inhibition, % at 7.5 µM; 300,000 tested, 1.1% active;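 active = mean at 75% or more and at least half the replicates too; inconclusive = mean and replicates disagree; tested in HMLE shEcad cells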;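 note: 0% = median of negative and 100% = median of positive control wells; the first replicate is given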
Env fusion inh: inhibitors of HIV Env-mediated cell fusion. HeLa-JRFL Env/CEM21 cell fusion, luciferase. inhibition, % at 12.3 µM. 360,000 tested, 1.1% active. AID 651610;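 active = mean replicate inhibition score of at least 50 and every replicate individually at or above 50; inconclusive = only one of the two criteria met; inactive = mean below 50 and not all replicates reaching 50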;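 note: 0% = plate neutral controls and 100% = maraviroc near 300 nM; one replicate is shown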
MT1-MMP act inh RFP: further read-out of MT1-MMP act inh, marked with its call; RFP signal change, %; measured here: RFP expression control read;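 0 = vehicle wells; hits needed this value within 50% of zero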
Numbers without * were called inactive; i = inactive; ? = inconclusive; nt = not tested or not shown.

Each structure is followed by: PABP FP inh	Rce1 inhib	MT1-MMP act inh RFP	eIF4H FP inh	MT1-MMP act inh	CSC inhib	Env fusion inh	UUG fidelity
CCOC(=O)c1ccc(-n2c(CCC(=O)O)ccc2-c2cccs2)cc1
  -0.1	i	0.7	-5.3	-7.4	8.2	18.2	-19.6
Cc1ccc(C)c(N2N=C(C(=O)Nc3ccccc3N3CCOCC3)CCC2=O)c1
  nt	nt	-0.5	nt	-4.7	2.0	nt	4.0
Cc1ccc(OCc2cc(C(=O)N3CCN(C4CCCCC4)CC3)no2)cc1C
  -3.7	i	5.2	-6.0	1.4	44.9	-37.7	-3.3
CCOC(=O)c1c(NC(=O)CC2Nc3cc(C)c(C)cc3NC2=O)sc(C)c1C (centres undefined)
  35.4	i	2.3	0.1	-6.7	7.6	nt	nt
CCOP(=O)(O)c1ccccc1OCCOCCOc1ccccc1P(=O)(O)OCC
  19.7	i	5.0	4.2	1.5	nt	-16.5	-2.5
Cc1c(NC(=O)/C(C#N)=C/c2c(N3CCCCC3)nc3ccccn3c2=O)c(=O)n(-c2ccccc2)n1C
  -5.4	i	-0.8	-1.4	-3.9	-5.4	-4.2	-10.3
Cc1cccc(C)c1NC(=O)C1(N2CCN(C(=O)c3ccco3)CC2)CCCCC1
  -4.0	i	1.1	-9.2	0.8	5.7	-4.0	nt
CCc1nn(-c2cc(Oc3cccc4ccccc34)nc(-c3ccccc3)n2)c(N)c1C#N
  -6.9	nt	1.0	-6.2	-2.8	5.5	nt	-9.5
COc1ccc2sc(-c3ccccc3OC)c(-c3ccc(OCCN4CCCC4)cc3)c2c1
  nt	nt	-0.8	nt	1.3	105.5*	-5.7	15.0
Cc1ccc(N2CCN(S(=O)(=O)c3ccc(C)cc3)CC2)cc1
  -3.7	i	-2.3	10.8	2.6	5.7	-6.7	-9.1
CC(C)C[C@H](NC(=O)c1nc[nH]c1C(=O)NC(c1ccccc1)c1ccccc1)C(=O)OCc1ccccc1
  -1.6	i	-26.9	-8.0	-23.2	18.2	16.4	3.2
COc1ccccc1C(=O)N/C(=C\c1cn(S(=O)(=O)N(C)C)c2ccccc12)C(=O)N1CCCCC1
  -13.9	i	-3.5	-10.0	0.1	-2.2	12.5	nt
O=C(c1ccc2c(c1)C(=O)N(c1ccc(Cl)cc1)C2=O)N1CCN(c2ccccn2)CC1
  nt	i	2.5	nt	-1.8	-9.6	nt	-17.5
Cc1ccc(S(=O)(=O)N[C@@H](Cc2ccccc2)C(=O)N2CCC(C(=O)N[C@@H](CCC(N)=O)C(=O)O)CC2)cc1
  -9.1	i	-1.8	0.5	-4.4	-10.6	-9.2	-8.5
O=C(CN1C(=O)CCC1=O)Nc1nc(-c2nc3ccccc3s2)cs1
  -16.1	i	-0.3	3.3	4.9	-8.3	19.8	-3.3
C=CCOc1ccc(CNC(C)(C)C)cc1OC
  -6.5	i	0.9	-6.6	-2.1	-6.1	nt	nt
CC(C)=C1SC(N2CCN(Cc3ccccc3)CC2)=NC1=O
  7.6	i	-2.8	5.7	-1.1	-9.4	8.2	5.2
Cc1ccc(-n2nc3ccc(N)cc3n2)cc1
  -3.5	i	3.7	31.2	2.4	17.3	nt	-13.5
CCC(CO)Oc1cc(NCc2ccccc2OC)c2ncn(C(C)C)c2c1 (centres undefined)
  nt	nt	7.0	nt	-3.0	-4.4	-2.0	-10.6
CCC(=O)OCC(=O)c1c(N)n(Cc2ccccc2)c(=O)n(C)c1=O
  3.2	i	-4.6	-1.1	-2.1	6.9	nt	17.7
Cc1ccc(C)c(S(=O)(=O)N/N=C/c2ccc(N(C)C)cc2)c1
  4.3	i	-1.1	-7.6	-1.8	-4.5	-0.8	nt
COc1ccc(N2CCC(CNC(=S)Nc3cc(C)cc(C)c3)C2)cc1 (centres undefined)
  -3.5	i	-3.3	-9.2	12.3	0.1	-37.8	-17.8
CCOc1ccc(CN2CCN(Cc3cnn(CC)c3C)CC2CCO)cc1 (centres undefined)
  9.5	i	2.2	-4.1	-4.9	20.1	-2.7	nt
Clc1ccc2c(N3CCCC3)ccnc2c1
  5.0	i	1.6	7.7	-0.5	-13.0	-11.6	-15.0
O=C(CSc1nnc(-c2ccc(F)cc2)n1-c1ccccc1)NCCN1C(=O)CSC1=O
  -7.4	i	3.8	0.4	-0.2	-2.8	-10.2	-19.5
CCCCCC(=O)Nc1nc(C)c(-c2csc(Nc3cc(OC)ccc3OC)n2)s1
  -9.8	i	-4.5	-7.5	-1.0	?	nt	-2.5
CC(=O)NC(=S)Nc1ccc(NC(=O)COc2ccc(C(C)C)cc2)cc1
  2.9	i	1.0	-0.7	0.3	35.7	8.8	-4.1
O=C(Nc1nccs1)c1cc(-c2ccccc2)nn1-c1ccccc1
  9.8	i	4.9	-6.3	3.6	3.6	10.2	-15.5
CCC(=O)Nc1ccc(N2CCOCC2)c(S(=O)(=O)Nc2ccc(Cl)cc2)c1
  nt	nt	-3.6	nt	-2.2	-13.7	nt	-6.6
Cc1cc(OCC(=O)Nc2nccs2)c2c(C)cc(=O)oc2c1
  0.9	i	3.4	1.3	1.9	-18.3	-2.0	-18.4
O=C1N/C(=N\N=C\c2ccco2)SC1Cc1ccc(F)cc1 (centres undefined)
  7.7	i	6.7	-4.0	5.0	nt	12.5	nt
Cc1ccc(CCn2c3c(c4ccccc42)CN(C)CC3)cn1
  17.8	i	-1.4	12.2	-2.6	5.3	nt	-15.2
COc1ccc(S(=O)(=O)Nc2cccc3c2O[C@H](CN(C)S(=O)(=O)c2ccccc2)[C@@H](C)CN([C@H](C)CO)C3=O)cc1
  nt	nt	2.8	nt	-0.7	4.4	-23.7	-0.2
CN(C)C(=O)CN1CCN(Cc2cn(C)nc2-c2ccc3c(c2)OCCO3)CC1
  6.8	i	-0.1	2.6	1.8	-2.5	-3.2	nt
CN(C)C(=O)c1ccc(NS(=O)(=O)c2ccc3c(c2)OCCO3)cc1
  0.1	i	-5.0	-7.9	2.5	-2.3	-3.7	3.6
COc1ccc(-c2cc(=O)oc3c(C)c(O)c(CN(C)C)cc23)cc1
  31.1	i	-3.0	29.5	-21.6	-6.2	73.1*	-6.3
CCn1nc(C)c(CN2CCCC(C(=O)c3cccc(OC(C)C)c3)C2)c1C (centres undefined)
  -2.9	i	-16.3	-3.0	2.7	3.0	26.9	-4.3
CCc1nnc(NC(=O)CCC(=O)N2CCN(S(=O)(=O)c3ccc(OC)cc3)CC2)s1
  -4.6	i	-1.0	-3.5	-1.1	-15.3	6.4	0.2
CCOC(=O)CNC(=O)N1CCCC(N(C)CCc2ccccc2)C1 (centres undefined)
  -2.2	i	-0.8	-9.3	-1.3	1.8	10.2	-4.3
CC(C)(C)C(=O)NCc1ccc(C(=O)CSc2nnc3n2CCCCC3)s1
  nt	nt	3.0	nt	-1.5	nt	-8.9	-9.4
NC(=O)CC(NC(=O)c1ccccc1)c1ccc(NCCCN2CCCC2=O)c([N+](=O)[O-])c1 (centres undefined)
  16.8	i	3.5	25.1	6.3	4.7	14.3	3.1
Cc1ccccc1C(=O)Nc1ccnn1C1CCN(Cc2ccncc2)CC1
  6.5	nt	0.6	4.0	-3.5	-12.1	-6.1	-16.4
N#Cc1c([N+](=O)[O-])cc([N+](=O)[O-])cc1S(=O)(=O)Cc1ccccc1
  nt	nt	-0.6	nt	-0.1	124.5*	nt	-22.9
CCCCn1c(N)c(NCc2ccccc2)c(=O)[nH]c1=O
  1.0	i	1.2	-0.1	-3.1	nt	4.1	nt
Cc1ccc(-n2nc(C)c3c2OC(N)=C(C#N)C3c2ccc(C)o2)cc1 (centres undefined)
  1.6	i	7.8	18.3	4.4	-7.3	nt	15.5
O=S1(=O)CCOCCCN1Cc1ccccc1
  -9.2	i	4.4	-9.3	-3.5	-1.5	-64.0	-2.8
COc1ccc(Cl)cc1S(=O)(=O)n1ccnc1
  1.4	i	0.8	0.9	-2.9	-3.4	6.7	-10.2
Cc1ccc(NC(=O)c2ccc(S(=O)(=O)N3CCC(C)CC3)cc2)cc1
  -4.0	i	-2.6	-11.8	2.5	2.8	-100.0	-14.4
CC(=O)Nc1ccc2nc(-c3ccco3)[nH]c2c1
  10.2	?	3.6	15.4	-0.2	-15.6	-63.6	nt
CC(=O)Nc1ccc(NC(=O)CSc2nnc(C3CC3)n2C)cc1
  -4.5	i	4.4	-8.0	4.3	nt	-99.6	-4.4
Cc1cc(C)c(NC(=O)CS(=O)CC(=O)Nc2ccc(-n3cnnn3)c(C)c2)c(C)c1 (centres undefined)
  6.0	i	-3.2	-11.8	-1.2	9.3	16.7	-9.9
O=C(N/N=C/c1cc(Br)cs1)c1ccc2c(c1)OCCO2
  -14.4	i	-10.8	-2.3	-0.8	?	-229.5	-13.9
COc1cc(C2NC(=S)NC(C)=C2C(=O)OC(C)C)ccc1OC(C)C (centres undefined)
  -11.3	i	-0.3	-3.1	-0.7	-16.9	-3.2	-18.9
Cc1ccc(NS(=O)(=O)c2ccc(C(=O)NCC3CCCO3)cc2)cc1 (centres undefined)
  7.7	i	-4.0	-9.9	1.3	0.6	11.1	nt
Cc1ccc(-n2ncc3c(=O)n(CC(=O)N(C)C)cnc32)cc1
  -0.9	i	0.7	-4.4	1.0	-12.2	-16.2	0.2
COc1cc(OC)cc(C(=O)NC2CCN(Cc3nnnn3Cc3cccs3)CC2)c1
  -5.4	i	3.9	-13.9	3.4	6.8	10.9	-9.5
CCCCn1c(N)c(N(CCC(C)C)C(=O)CSc2nc3ccccc3s2)c(=O)[nH]c1=O
  nt	nt	-14.4	nt	-21.4	nt	-23.8	-11.7
Cc1cc(C(=O)N/N=C2\CCCC(C)C2)n[nH]1 (centres undefined)
  0.5	i	-0.6	-7.2	-6.0	-7.1	nt	nt
Cn1c(SCC(=O)O)nnc1C1CCCCC1
  2.4	i	-1.3	-4.4	1.3	-12.1	nt	nt
COc1ccc(OC)c(NC(=O)CCn2ccnc2)c1
  -6.0	i	0.4	-2.7	1.8	nt	-0.8	-19.0
CCCS(=O)(=O)N1CCCC(C(=O)N2CCN(c3ccccc3)CC2)C1 (centres undefined)
  -8.2	i	1.1	-0.9	2.3	-8.4	nt	-3.5
Cc1ccc(C(=O)CSc2nnc(COc3ccc(C#N)cc3)n2-c2ccccc2)cc1
  8.0	i	-3.8	-3.5	-2.9	-13.2	nt	-21.4
